Screens deposited in PubChem BioAssay by National Center for Advancing Translational Sciences (NCATS).
TRPML1 blocker = human mucolipin-1 channel inhibition; Q9GZU1; TRPML1-inducible cells, Ca2+ dye fluorescence, FDSS; active compounds read low; inhibition of EC80 agonist-evoked calcium signal; activity change, negative = inhibition, % (test concentration not listed); 390,000 tested, 0.02% active; in the data active means activity change below about -50%; inconclusive means about -30% to -50%; inactive means above about -30%;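 further: stimulus is agonist 54-4 at its EC80 concentration; on the % scale 0 is the no-effect control and ±100 the full control effect; compound concentration not given in the record; the text of the record puts the active cut at -80%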
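TRPML1-DL cells, Tet-induced overnight (~16 h, 37 °C) at 1,500 cells/well, were loaded with Ca8 no-wash dye plus quencher for 45-90 min at room temperature. Compounds were pinned during FDSS kinetic reading; agonist 54-4 at EC80 (4 uM final) then added.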
D2 potentiator = human D2 receptor positive allosteric modulation; AID 624464; potentiation, % (no concentration beside the values); P14416; DiscoveRx D2 beta-arrestin cells, luminescence, 90 min; 100% = 57 uM dopamine signal; 360,000 tested, 0.23% active; active = potentiation of 50% or more; inconclusive = 30% to 50%; inactive = 30% or less;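 further: compound concentration not given in the record; tested on top of an EC20 dose of dopamine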
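PathHunter D2 cells, attached overnight at 37 deg C, received compound in DMSO plus dopamine at EC20 (50 nM final) for 90 min at 37 deg C. Beta-arrestin recruitment was read as luminescence after 1 h with detection reagent at ambient temperature.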
Six1-Eya2 blk = inhibitors of human Six1/Eya2 interaction. Q15475+O00167. AlphaScreen GST-Six1/His-Eya2 binding, biochemical; active compounds read low; control for the full effect not named in the record. activity change, % (test concentration not listed). 360,000 tested, 0.56% active; in the data active = activity change below about -65%; inconclusive = about -30% to -65%; inactive = above about -30%; further: on the % scale 0 is the no-effect control and ±100 the full control effect
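AlphaScreen luminescence read after one hour at 37 °C in darkness. Pin-transferred compounds met GST-Six1 and His-Eya2 protein (5X stock 250 nM/500 nM) plus glutathione donor and Ni-chelate acceptor beads (5X, 50 ug/mL).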
TRPV1 potentiator = human TRPV1 potentiation; AID 540277; 320,000 tested, 0.02% active; TRPV1-expressing cells, Fluo-8 calcium influx, capsaicin EC20 potentiation; host cell line not named in the record; control for the full effect not named in the record; potentiation, % at 8.33 µM; active means potentiation above 80%; inconclusive means 30% to 80%; inactive means below 30%; further: 0% is about no effect
Target sequence (Q8NER1 whole entry, looked up): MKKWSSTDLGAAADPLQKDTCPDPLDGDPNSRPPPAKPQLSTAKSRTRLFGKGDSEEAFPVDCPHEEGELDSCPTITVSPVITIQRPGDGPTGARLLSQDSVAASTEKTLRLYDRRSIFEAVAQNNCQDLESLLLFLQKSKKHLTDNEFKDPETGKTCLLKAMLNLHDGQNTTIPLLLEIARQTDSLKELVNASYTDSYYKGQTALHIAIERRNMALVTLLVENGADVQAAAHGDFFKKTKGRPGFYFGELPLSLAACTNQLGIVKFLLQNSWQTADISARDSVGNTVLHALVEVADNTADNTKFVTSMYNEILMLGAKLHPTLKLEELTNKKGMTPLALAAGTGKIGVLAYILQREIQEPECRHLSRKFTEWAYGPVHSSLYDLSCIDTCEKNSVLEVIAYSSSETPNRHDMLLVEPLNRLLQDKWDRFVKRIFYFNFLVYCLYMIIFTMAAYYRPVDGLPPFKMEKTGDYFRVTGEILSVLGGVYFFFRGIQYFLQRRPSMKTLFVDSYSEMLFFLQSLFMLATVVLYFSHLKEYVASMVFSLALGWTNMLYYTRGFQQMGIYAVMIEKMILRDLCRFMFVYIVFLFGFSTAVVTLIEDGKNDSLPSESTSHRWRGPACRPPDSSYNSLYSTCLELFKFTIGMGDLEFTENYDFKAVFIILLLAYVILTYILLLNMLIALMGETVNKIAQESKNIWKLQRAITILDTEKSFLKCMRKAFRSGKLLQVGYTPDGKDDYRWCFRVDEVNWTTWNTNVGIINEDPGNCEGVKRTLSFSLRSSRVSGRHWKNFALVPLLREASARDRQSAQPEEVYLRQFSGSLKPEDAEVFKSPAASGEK
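TRPV1-expressing cells were cultured overnight at 35.5C and loaded with Fluo-8 calcium dye for 40 to 90 min at room temperature. After a 10 s baseline, compound was added and calcium influx was read kinetically for 3 min (ex 480/em 520 nm).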
TRPML1 ag = activates the human TRPML1 channel. TRPML1-expressing cells, Ca2+ dye fluorescence, FDSS; host cell line not named in the record; reference of the full effect not given here. activation, % (test concentration not listed). 410,000 tested, 0.12% active; in the data active = activation above about 50%; inconclusive = about 30% to 50%; inactive = below about 30%; further: 0% is about no effect; the text of the record puts the active cut at 80%
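TRPML1-DL cells, Tet-induced overnight (~16 h, 37 degrees C), loaded 45-90 min at room temperature with Ca8 no-wash calcium dye plus quencher. FDSS fluorescence: 10 s baseline, compound pin-transfer, 110 s agonist read, then EC80 54-4 (4uM final) and 110 s antagonist read.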
CtBP-E1A inh = blocks the CtBP interaction with E1A | AlphaScreen GST-E1A/His-CtBP binding, 1536-well; active compounds read low; control for the full effect not named in the record | activity change, % (test concentration not listed) | 340,000 tested, 0.49% active | AID 651724; in the data active means activity change below about -65%; inconclusive means about -30% to -65%; inactive means above about -30%; further: on the % scale 0 is the no-effect control and ±100 the full control effect
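Protein mix (5X: 125 nM each GST-E1A, His-CtBP) was incubated with pinned compound 2 h at 37 deg C in dark, in 50 mM Tris pH 8.0 buffer with 300 mM NaCl. Glutathione donor and nickel acceptor beads followed; AlphaScreen signal read after 1 h.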
Active calls of the source: *; ? = inconclusive; / = no result given.

nr	SMILES	CtBP-E1A inh	TRPML1 blocker	D2 potentiator	TRPML1 ag	TRPV1 potentiator	Six1-Eya2 blk
1	O=C(NCc1ccccc1)C1c2ccccc2OCC(=O)N1Cc1ccc2c(c1)OCO2 (configuration not stated)	25	/	/	0.4	/	10
2	CC(C)c1nc(C(=O)N2CCc3c([nH]c4ccccc34)C2c2ccccn2)cs1 (configuration not stated)	-10	28	-8	-0.1	10	-12
3	Cc1cc2ccccc2n1CCNC(=O)C1CCCCC1	-9	3	-2	1.1	-32	-2
4	O=C(COc1ccc(F)cc1)Nc1nc(-c2cccnc2)cs1	-7	38	-3	-0.4	/	-3
5	CN(C(=O)COC(=O)c1ccccc1C(=O)c1ccccc1)c1ccccc1	-11	17	-8	2.7	/	2
6	CCCCNC(=O)c1cc2n(n1)C(C(F)(F)F)CC(c1ccccc1)N2 (configuration not stated)	2	5	5	1.8	7	2
7	O=C1CCC(C(=O)N(CCO)Cc2ccccc2)CN1CC1CCCCC1 (configuration not stated)	17	6	3	-0.3	-5	3
8	CCOc1ccc(OCC(=O)OCc2csc(CC(=O)Nc3ccccc3C)n2)cc1	4	20	6	-0.2	9	0
9	CCOC(=O)N1CCC(NC(=O)c2cc(C(=O)NCC(OC)OC)ccc2CO)CC1	6	-2	-3	-0.6	-2	4
10	Cc1cccc(C)c1NC(=O)COC(=O)c1cc(=O)[nH]c2ccccc12	/	9	-2	0.0	2	1
11	CCC[C@H]1NC(=O)[C@H](C)N(C)C(=O)C(C)(C)C(=O)C(C)NC(=O)[C@H](Cc2ccc(OC)cc2)N(C)C(=O)[C@H](C(C)C)N(C)C(=O)CNC(=O)[C@H](CC(C)C)N(C)C(=O)CNC(=O)[C@H]([C@@H](C)CC)OC(=O)[C@H]1C (some centres not stated)	1	-4	/	-0.4	/	6
12	CCOC(=O)CCc1c(C)c(C#N)c2[nH]c3ccccc3n2c1=O	4	-6	9	0.2	-8	-5
13	O=C(CN1CCN(Cc2ccccc2)CC1)N/N=C/C=C/c1ccco1	1	0	-10	0.3	-6	2
14	CCCN(CCO)Cc1ccc2ccccc2c1	2	-6	-20	-0.2	17	0
15	CCCCN(C(=O)c1ccc([N+](=O)[O-])o1)c1c(N)n(CC(C)C)c(=O)[nH]c1=O	-13	18	?	1.2	13	10
16	CC(=O)c1ccc(NC(=O)COC(=O)c2ccccc2Nc2ccccc2)cc1	8	13	-17	3.2	20	1
17	O=C(NCCc1ccccc1)C1CCC(=O)N(Cc2cccc(C(F)(F)F)c2)C1 (configuration not stated)	9	-2	-3	0.0	-4	1
18	COc1ccc(-c2cc(C(=O)NCCCn3ccnc3)no2)cc1OC	-7	-13	-2	-0.3	-5	-2
19	O=C(CCNC(=O)c1ccc([N+](=O)[O-])cc1)Nc1cccc(S(=O)(=O)N2CCCCC2)c1	-7	11	-3	0.8	-3	-2
20	O=c1ccc(S(=O)(=O)N2CCCC2)cn1Cc1ccc(Cl)cc1Cl	-1	-4	-10	-0.1	-24	3
21	COc1ccc(S(=O)(=O)Nc2ccc(S(=O)(=O)N3CCCCC3)cc2)cc1	11	5	-2	3.2	27	4
22	CCOC(=O)c1c(C(C)(C)C)oc2ccc(O)cc12	-1	5	-27	1.6	-6	-7
23	COc1ccc(C(C)NC(=O)Nc2ccc(C(C)=O)cc2)cc1OC (configuration not stated)	0	5	-8	1.1	-6	0
24	Cc1ccccc1C(=O)N1CCN(c2ccc(NC(=O)Cc3ccccc3)cc2)CC1	0	53	6	0.1	-2	-1
25	CN(CC(=O)Nc1ccccc1C(F)(F)F)C(=O)C1CC1	-15	20	-7	-0.1	-3	-2
26	Cc1ccc(-n2nnnc2SCC(=O)Nc2cc(C)on2)c(C)c1	1	-9	2	0.2	-18	-8
27	O=c1oc(-c2cccs2)nc2ccc(Br)cc12	0	10	-8	1.2	11	-1
28	CCOc1ccc(C(=O)Nc2cccc(-n3cnnn3)c2)cc1OCC	-7	6	-13	0.5	-9	0
29	CC1CCC2(CC1)NC(=O)N(CC(=O)c1ccc3c(c1)OCO3)C2=O (configuration not stated)	-10	8	-8	-0.4	/	-2
30	COc1cc(NC(C)=O)ccc1NC(=O)c1cc2ccccc2o1	/	/	-18	/	-9	-2

Additional structures follow.
nr	SMILES	CtBP-E1A inh	TRPML1 blocker	D2 potentiator	TRPML1 ag	TRPV1 potentiator	Six1-Eya2 blk
31	COc1ccc(NC(=S)N2CCN(C/C=C/c3ccccc3)CC2)cc1	-5	-9	-17	-0.3	-1	-22
32	Cc1ccc(Nc2cccccc2=O)cc1	-5	-5	-8	-1.0	5	0
33	CC(=O)c1ccc(Nc2nc3ccccc3nc2NS(=O)(=O)c2cccs2)cc1	/	13	-13	-0.3	-6	1
34	COc1ccc(OC)c(S(=O)(=O)CC(O)COc2ccccc2Cl)c1 (configuration not stated)	3	33	-1	0.7	-1	4
35	Cc1cc(C(=O)CSc2ccc(F)cc2)cc(C)c1O	0	-11	3	1.6	-9	1
36	COc1ccc2c(c1)C(=O)N(c1ccc(C)cc1)C(=O)C2	1	3	-7	-0.7	5	10
37	COc1ccc(-n2c(COc3cccc4ccccc34)nnc2SCC(=O)NCc2ccco2)cc1	-15	21	-18	6.3	-4	-12
38	Cc1c(NS(=O)(=O)c2ccc(Br)s2)c(=O)n(-c2ccccc2)n1C	1	5	5	1.5	29	1
39	CC(=O)OC/C=C(\C)CCC=C(C)C	1	18	-1	0.0	7	23
40	O=C(NC1CCS(=O)(=O)C1)c1ccc(S(=O)(=O)N2CCCCC2)cc1 (configuration not stated)	-2	-21	-8	-0.5	?	8
41	Cc1cc(CNC(=O)CC2C(=O)NCCN2Cc2ccccc2C(F)(F)F)nn1C (configuration not stated)	/	2	-3	0.6	2	-2
42	COc1cccc2c(=O)c3c(cnn3C)n(C)c12	7	-6	-15	-0.4	-22	-13
43	CC1Nc2ncnc(N3CCOCC3)c2N(Cc2ccccc2)C1=O (configuration not stated)	4	-2	-6	-0.3	28	3
44	CCCn1cc(NC(=O)c2cc(-c3ccccc3)on2)cn1	0	12	-13	-0.9	-20	2
45	c1cc(-c2ccc(N3CCOCC3)cc2)n2ccnc2c1	-15	-30	-9	0.1	/	-2
46	O=C(NC1CCCCC1)c1ccc([N+](=O)[O-])cc1	4	-2	-1	0.4	/	-2
47	COc1ccc(CC(NC(C)=O)C(=O)NC2CCN(c3c4c(nc5ncnn35)CCC4)CC2)cc1OC (configuration not stated)	4	39	-1	-0.1	-3	0
48	O=C1C2CCCN2C(c2cccs2)N1c1ccc(Cl)cc1 (configuration not stated)	-17	1	5	1.5	4	3
49	COc1ccc(-c2csc(NC(=O)C3CC(=O)N(c4ccc5c(c4)OCCO5)C3)n2)cc1 (configuration not stated)	-13	-10	-4	1.1	-7	-24
50	CC(C)CC(=O)N/C(N)=N/c1nc2ccccc2o1	8	32	-3	-0.1	/	3
51	CC(=O)c1cccc(NC(=O)CCCOc2ccc(C)cc2)c1	6	-7	-3	3.0	-17	7
52	CC(C)CNC(=O)CN(c1cccc(Cl)c1)S(C)(=O)=O	1	-17	0	-0.4	-1	7
53	Cc1cc(=O)[nH]c(SCC(=O)NCCc2ccccc2)n1	4	-7	-2	0.0	4	13
54	CCC(C)/C(C)=N/NC(=O)CSc1nc2ccccc2[nH]1 (configuration not stated)	-13	-5	-10	0.0	-6	-10
55	COc1ccc(CN2C(=O)CN(C3CCCCCC3)C(=O)C2c2ccc(F)cc2)cc1 (configuration not stated)	1	22	-4	-0.2	-18	0
56	COc1ccccc1NC(=O)N(Cc1ccccc1)C1=NCC(C)S1 (configuration not stated)	8	48	5	21	-1	24
57	COc1ccc(CNC(=O)CC2(CC(=O)O)CCCCC2)cc1	/	-9	-3	-0.1	3	29
58	CCCCCCCCCn1ccc(=N)cc1	8	-8	-9	-0.2	-5	14
59	CCC(=O)Nc1cccc(C(=O)/C=C/c2cccs2)c1	/	-4	-6	0.6	-4	8
60	Cc1ccc(CSc2nnc3nc(C)cc(C)n23)cc1	-2	-7	-31	-0.1	7	-9

(continued)
nr	SMILES	CtBP-E1A inh	TRPML1 blocker	D2 potentiator	TRPML1 ag	TRPV1 potentiator	Six1-Eya2 blk
61	Cc1ccccc1-n1nnnc1SCC(C)C	44	19	4	2.9	-7	56
62	N#Cc1c2n(c3c(=S)nc[nH]c13)CCCCC2	1	53	-28	-0.1	-12	-6
63	c1ccc2c(OCCCCN3CCOCC3)cccc2c1	-5	12	-14	0.7	5	-11
64	CCCCCCCCCCCCN1[C@@H](CC(=O)OC)c2cc(F)cc(F)c2S1(=O)=O	18	33	-13	0.4	/	15
65	O=[N+]([O-])c1cccnc1Sc1n[nH]c(-c2ccc(Cl)cc2)n1	/	-10	-5	0.0	/	-10
66	O=c1nc(NCc2ccccc2Cl)cn[nH]1	-3	9	-5	0.6	6	1
67	CC1CN(CCN2CC(C)N(C=O)CC2C)C(C)CN1C=O (configuration not stated)	-5	-2	-22	-0.1	/	6
68	CN(C(=O)COC(=O)c1ccc2c(c1)OCCO2)C1CCCCC1	2	-2	-11	0.0	4	0
69	Cc1cc(=O)oc(C)c1C(=O)Nc1cccc(F)c1	6	-6	-4	4.5	-8	1
70	CCOC(=O)C1CCCN(Cc2cc(OC)c(O)c(OC)c2)C1 (configuration not stated)	9	-6	-20	0.2	13	3
71	c1ccc2c(Nc3nc(N4CCOCC4)c4ccccc4n3)cccc2c1	13	13	-26	2.6	10	4
72	CCOC(=O)C(NC(C)=O)(Nc1ccc(S(=O)(=O)Nc2nccs2)cc1)C(F)(F)F (configuration not stated)	0	16	4	-0.2	19	-7
73	CCCc1cc(=O)oc2c(C)c(OCC(=O)N3C[C@H]4C[C@@H](C3)c3cccc(=O)n3C4)ccc12	-15	/	-16	/	17	-2
74	CC(=O)Nc1ccc(-c2cc3ccccc3o2)cc1	2	11	5	0.4	6	10
75	Cc1nc2ccc(NC(=O)N3CCOCC3)cc2nc1C	-4	-13	-9	0.1	-4	-3
76	COc1cc(C2/C(=C(\O)c3ccc4c(c3)CC(C)O4)C(=O)C(=O)N2Cc2ccco2)ccc1O (configuration not stated)	6	6	13	-0.2	6	1
77	O=C1CC[C@@H](C(=O)O)N1	3	22	-3	0.4	5	5
78	O=C1c2cccc3cccc(c23)C(=O)N1c1ccccn1	/	31	2	-0.1	12	9
